Assay outcomes: PubChem, Fisher Drug Discovery Resource Center
NPYLR7 agonist = activates Aedes aegypti NPYLR7 receptor | HEK293T NPYLR7/Galpha15, GCaMP6s calcium fluorescence | activation, % at 10 µM | 270,000 tested, 0.15% active; in the data active = activation above about 40%;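 also: 0% = vehicle and 100% = reference agonist at the receptor; some compounds past the cut are filed as inactive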
NPYLR7 agonist max-min = also measured in NPYLR7 agonist; calls as there; activation, %; measured here: Max-Min RFU normalised activation; some inactives read as strong as hits;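 span of the calcium signal over five minutes; 0% = vehicle and 100% = native peptide agonist; compound fluorescence can raise it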
An asterisk follows results filed as active; & = joins results of further samples. Only part of the results is shown (hit frequency here may not be typical).

The opening 13 entries as a preview:
Order of results – NPYLR7 agonist, NPYLR7 agonist max-min
CN(c1ncnc2sccc12)C1CCCc2ccccc21 (stereo not given)
→ -2, -3
Cc1cc(=O)c(C(=O)NCC(C)c2ccccc2)nn1-c1ccccc1 (stereo not given)
→ -1, -2
CCCN1C(=O)C(CCC(=O)NCCc2cccs2)NC(=O)c2ccccc21 (stereo not given)
→ 9, 15
COC(=O)Cn1c(=O)c2c(nc3n(-c4ccc(Br)cc4)c(C)c(C)n23)n(C)c1=O
→ 34, 49
Cc1noc(C)c1C1CCCN1Cc1cccc2c1OCO2 (stereo not given)
→ 2, 0
CC(CNC(=O)N1CCC(n2cncn2)CC1)c1ccc(F)cc1F (stereo not given)
→ 8, 5
CC(Oc1ccccc1Br)C(=O)NCc1nccs1 (stereo not given)
→ 7, 5
Cc1nc(-c2ccccc2)c(C(=O)N2CCC(O)(CN(C)C)C2)s1 (stereo not given)
→ 2, 1
CCOC(=O)c1c(NC(=O)C(C)Cl)c(-c2cccc(F)c2)cn1Cc1ccccc1 (stereo not given)
→ 25, 20
Cc1ccc(C(=O)Nc2ccc(N(C)C)c(C(=O)NC(C)c3ccccc3)c2)cc1[N+](=O)[O-] (stereo not given)
→ 2, 11
Cc1ncccc1OC1(C(=O)N2C[C@H]3CC=CC[C@H]3C2)CCNCC1
→ -1, -4
CC(=O)c1ccc(C(=O)N(Cc2ccccn2)c2nc3c(C)c(Cl)ccc3s2)cc1
→ 1, -7
CC1(C(=O)NCc2ccc3c(c2)OCO3)CCN1C(=O)Cc1ccc(Cl)cc1Cl (stereo not given)
→ 10, 8

The listing, previewed entries included:
Order of results – NPYLR7 agonist, NPYLR7 agonist max-min
CN(c1ncnc2sccc12)C1CCCc2ccccc21 (stereo not given)
→ -2, -3
Cc1cc(=O)c(C(=O)NCC(C)c2ccccc2)nn1-c1ccccc1 (stereo not given)
→ -1, -2
CCCN1C(=O)C(CCC(=O)NCCc2cccs2)NC(=O)c2ccccc21 (stereo not given)
→ 9, 15
COC(=O)Cn1c(=O)c2c(nc3n(-c4ccc(Br)cc4)c(C)c(C)n23)n(C)c1=O
→ 34, 49
Cc1noc(C)c1C1CCCN1Cc1cccc2c1OCO2 (stereo not given)
→ 2, 0
CC(CNC(=O)N1CCC(n2cncn2)CC1)c1ccc(F)cc1F (stereo not given)
→ 8, 5
CC(Oc1ccccc1Br)C(=O)NCc1nccs1 (stereo not given)
→ 7, 5
Cc1nc(-c2ccccc2)c(C(=O)N2CCC(O)(CN(C)C)C2)s1 (stereo not given)
→ 2, 1
CCOC(=O)c1c(NC(=O)C(C)Cl)c(-c2cccc(F)c2)cn1Cc1ccccc1 (stereo not given)
→ 25, 20
Cc1ccc(C(=O)Nc2ccc(N(C)C)c(C(=O)NC(C)c3ccccc3)c2)cc1[N+](=O)[O-] (stereo not given)
→ 2, 11
Cc1ncccc1OC1(C(=O)N2C[C@H]3CC=CC[C@H]3C2)CCNCC1
→ -1, -4
CC(=O)c1ccc(C(=O)N(Cc2ccccn2)c2nc3c(C)c(Cl)ccc3s2)cc1
→ 1, -7
CC1(C(=O)NCc2ccc3c(c2)OCO3)CCN1C(=O)Cc1ccc(Cl)cc1Cl (stereo not given)
→ 10, 8
C#C[C@]1(O)CC[C@H]2[C@@H]3[C@H](C)CC4=C(CCC(=O)C4)[C@H]3CC[C@@]21C
→ 0, 1
CC1CCCN(c2ccc(C(=O)N(C)C)cc2[N+](=O)[O-])C1 (stereo not given)
→ -3, -6
COc1ccc(-c2ncnc(Oc3ccccc3OC)c2N)cc1OC
→ 21, 9
CN1CCN(N=Cc2cc(Cl)cc(Cl)c2O)CC1
→ -4, -8
O=C(/C=C/c1ccc(-c2cccc([N+](=O)[O-])c2)o1)N1CCCCC1
→ 0, -1
CCCCN(Cc1ccccc1)C(=O)Nc1c[nH]c2ccccc12
→ -1, -8
COc1ccc(S(=O)(=O)N2CCCC(C)C2)cc1N1CCN(S(=O)(=O)c2ccccc2C(F)(F)F)CC1 (stereo not given)
→ 23, 18
COCCC(=O)NC1CCc2[nH]c3c(C)cc(Cl)cc3c2C1 (stereo not given)
→ 35, 20
CCOC(=O)c1ccc(NC(=O)NC(C(=O)Nc2nnc(-c3cccc(Br)c3)s2)C(C)CC)cc1 (stereo not given)
→ 1, 1
Cn1c(SCc2cc3c(cc2Br)OCCO3)nnc1C1CC1
→ 0, 6
COc1ccccc1NC(=O)Nc1ccc(Nc2ccc(-n3cccn3)nn2)cc1
→ -1, -4
CCOC(=O)C1(Cc2ccccc2C(F)(F)F)CCN(C(C)Cn2nc(C)cc2C)CC1 (stereo not given)
→ -8, -8
CCOc1ccccc1NC(=O)Nc1ccc(N2CCC(Cc3ccccc3)CC2)c(C(=O)NCC2CCCO2)c1 (stereo not given)
→ -7, 1
COc1ccc(C(=O)N2CCC(n3nccc3NC(=O)c3ccccc3OC)CC2)o1
→ 0, -3
CC(C)(C)OC(=O)N1CCN(C(=O)CSCc2ccccn2)C(C#N)C1 (stereo not given)
→ 6, 0
O=C(c1ccc(-n2ncc3c(Cl)cccc32)o1)N1CCOCC1
→ -6, -11
CC(=NNC(=O)Cn1c(C(F)(F)F)nc2ccccc21)c1ccc(C#N)cc1
→ 1, 4
Cn1c(-c2ccsc2)cc2c(Nc3ccc(S(C)(=O)=O)cc3)nccc21
→ -2, -7
CCCCCc1ccc(C(=O)Nc2cccc(C3SCC(=O)N3c3ccccc3OCC)c2)cc1 (stereo not given)
→ 2, 5
Fc1ccc(-c2[nH]ncc2CNCC2(c3ccccc3)CC2)cc1
→ 5, -1
O=C(Nc1cccc(Br)c1)Nc1ccc(N2CCCC2)c(C(=O)NCCc2ccccc2)c1
→ 1, -8
COc1ccc(NC(=O)NCCNc2cc(-n3cccn3)nc(C)n2)c(C)c1
→ -7, -10
Cc1ccc(-c2nc(C)c(Cc3ccccc3)c(N3CCN(C(=O)Nc4c(Cl)cccc4Cl)CC3)n2)cc1
→ -5, 3
N#CCCN(Cc1cccnc1)C(=O)c1cc(-c2ccccc2Cl)nc2cc(-c3ccccc3)nn12
→ 17, 24
CN1N=C(c2cccs2)CSC1=NCc1ccccc1
→ 9, 1
Cn1nc(-c2ccc(N3CCCCC3)c(NS(=O)(=O)c3ccccc3)c2)c2ccccc2c1=O
→ -13, -19
CCOC(=O)C1CCN(C(=O)c2coc(CN(Cc3ccc(F)cc3)Cc3ccc(F)cc3F)n2)CC1
→ 24, 44
COc1cccc(NC(=S)NN=C2CC3CC=CC23)c1 (stereo not given)
→ -5, -7
O=C(Nc1ccc(F)cc1Cl)N(Cc1ccco1)C1CC1
→ 0, 16
COc1cc(C2SCCS2)ccc1Oc1ncnc2c1cnn2C
→ 4, 5
O=C(CN1C(=O)c2ccccc2C1=O)Nc1nccs1
→ -1&-6, -6&-10
COc1cccc(COC(CN2CCN(S(=O)(=O)c3cccc(C(F)(F)F)c3)CC2)c2ccc(Cl)cc2)c1 (stereo not given)
→ 26, 10
CC12CCC(=O)N1c1c(oc3ccccc13)C(=O)N2 (stereo not given)
→ 5, 3
Oc1cccnc1NC(c1ccc(F)cc1)c1ccc2cccnc2c1O (stereo not given)
→ 1, -1
CC(=O)Nc1ccc(S(=O)(=O)NCc2nnnn2-c2ccc(F)c(F)c2)cc1
→ 18, 8
CC(NS(=O)(=O)c1ccc(F)cc1)C(=O)OC(C)C(N)=O (stereo not given)
→ 6, 8
CC(O)c1cccc(S(=O)(=O)N2CCN(C(C)C(N)=O)CC2)c1 (stereo not given)
→ 1, -3

(more compounds)
Order of results – NPYLR7 agonist, NPYLR7 agonist max-min
CCCCCCCn1c(CN2CCN(C(=O)OCC)CC2)nc2c1c(=O)n(C)c(=O)n2C
→ 1, -1
CCOC(=O)c1ccc2c(c1)nc(SCc1cccc(SC(F)(F)F)c1)n2Cc1ccc(C(F)(F)F)cc1
→ 4, 3
COC1C[C@](OCc2ccccc2F)(C(=O)NCCN2CCOCC2)C[C@@H](O)[C@H]1O (stereo not given in full)
→ 2, 9
O=C1c2cccc3c(N4CCCCC4)ccc(c23)C(=O)N1c1ccc(Cl)cc1
→ 1, -4
CCN(Cc1cnc(N)nc1)CC1CCOCC1
→ 1, 12
Cc1nc(CC2CCN(Cc3nc(-c4sccc4C)oc3C)CC2)no1
→ -1, -5
O=C(c1cccc(-c2ccc(F)cc2)c1)N1CCCC(O)(CO)CC1 (stereo not given)
→ 0, 0
CC(C)CCN1CCN(C2CCCCC2)CC1CCO (stereo not given)
→ 1, -2
O=C(NCc1cccc(OC(F)(F)F)c1)c1ccc(-c2cccc(Cl)c2)s1
→ 40, 41
Cc1cccc(-c2noc(N3CCOCC3)c2CN(CCN(C)C)C(=O)c2cccc(Br)c2)c1
→ 6, 8

Further entries.
SMILES | NPYLR7 agonist | NPYLR7 agonist max-min
CSCCc1ccc(NC(=O)NCc2c(C)noc2C)cc1 | 3 | 2
CN(C)CCN(C(=O)c1ccc([N+](=O)[O-])s1)c1nc2cc3c(cc2s1)OCO3 | -1 | -4
CN(CC(=O)NC1CC1)C(=O)CNc1ccc(C#N)cc1 | 8 | 6
C=CCc1c(C)nc2c(-c3ccccc3)cnn2c1NCCOC | 3 | 2
COc1cc2c(cc1OC)Sc1ccc(Cl)cc1C=C2 | 8 | 2
N#Cc1ccc(CSc2nnnn2-c2ccccc2)c(F)c1 | 1 | 17
CCc1nc(SCC(=O)N2CCC(O)(c3ccc(C)cn3)CC2)n[nH]1 | 19 | 7
CC1CN(C(=O)c2cc3ccsc3n2Cc2cccc(F)c2)CCN1C(=O)C(Cl)c1ccccc1 (stereo not given) | 1 | 3
CCc1nc2ccc(C(=O)NCc3cccs3)cn2c1N(CC)C(=O)NCCc1ccccc1 | -16 | -17
Cc1ccccc1COC1CCCN(S(=O)(=O)c2ccc(F)cc2)C1 (stereo not given) | -7 | 0
COc1ccc(NS(=O)(=O)CC(C)c2ccccc2)cc1F (stereo not given) | 3 | 2
Cc1c(C(=O)NCCN2CCCC2)cc(-c2ccc(Cl)cc2)n1-c1cccc(F)c1 | 12 | 27
CN(C)c1ccc(-c2nc3ccc(Cl)cn3c2NC(C)(C)CC(C)(C)C)cc1 | 18 | 21
C=c1ccccc1=C1NN=C(SCC(=O)c2ccc3c(c2)OCO3)O1 | 9 | 2
COc1ccc(N2CN(C(=O)CN(CC(C)C)C(=O)CC(C)CC(C)(C)C)CC2=O)cc1 (stereo not given) | 15 | 10
CN(Cc1ccc(Br)cc1)C(=O)CCl | 0 | 0
Cc1ccccc1C1CCCN(C(=O)c2ccc3oc(C(C)C)nc3c2)C1 (stereo not given) | 4 | 0
CN1CCCn2nc(C(=O)N3C[C@H](O)[C@@H](N4CCCC4)C3)cc2C1 | 23 | 17
O=C(CNCc1ccco1)N(Cc1ccccc1)Cc1cccs1 | -7 | -15
O=C(C1CCC1)N1CCC(Cc2ccc(-c3ccccc3)cc2)CC1 | 4 | 1
CN(CCc1ccccc1)C1CCCN(C(=O)c2c[nH]c(=O)cn2)C1 (stereo not given) | 9 | 7
CCc1[nH]n(-c2ccc(Cl)c(Cl)c2)c(=O)c1C1=C(N2CCOCC2)C(=O)N(c2cccc(C)c2)C1=O | 4 | 3
COc1ccc(C(=O)Nc2c(N)nc(SCC(=O)N3CCc4ccccc43)[nH]c2=O)cc1OC | 3 | -1
COCCn1c(CN2CCN(c3ccccc3F)CC2)nc2c1c(=O)n(C)c(=O)n2C | 2 | 4
Cc1ccc(S(=O)(=O)NCCc2nnc3ccc(SCc4cccc5ccccc45)nn23)cc1 | 23 | 13
COc1ccccc1NC(=O)c1ccc(-n2nc(-c3ccc(Cl)cc3)cc2N)cc1 | -3 | -7
O=c1[nH][nH]c(=O)n1/N=C\C=C/c1ccccc1 | -1 | -1
CN(Cc1ccncc1)C(=O)c1ccc2c(c1O)OC(C)(C)C2 | -15 | -14
Cc1nc(Nc2cccc3ccccc23)nc(Nc2cccc3ccccc23)c1[N+](=O)[O-] | 7 | 5
CCc1cc2c(=O)c(-c3nc4ccccc4[nH]3)coc2c(CN2CCCCC2C)c1O (stereo not given) | -7 | -17
CN1C[C@@H]2CC[C@H](CC1=O)N2C(=O)C1(S(=O)(=O)c2ccccc2)CC1 | 0 | 0
COc1ccc(OCC2CN(Cc3cccc(F)c3)S(=O)(=O)c3cnccc3O2)cc1 (stereo not given) | 18 | 28
CC(C)(C)Cc1nnc(NS(C)(=O)=O)s1 | 3 | 2
CCC(C)N(Cc1cccnc1)C(=O)c1cccc2c1OCCO2 (stereo not given) | 3 | 2
Cc1ccc(CN(Cc2ccccc2)C(=O)CN(C(=O)c2cccc([N+](=O)[O-])c2)C2CCCCC2)s1 | 1 | -3
COc1cccc(CN2CCC(C(=O)NC(c3ccccn3)c3ccccc3OC)CC2)c1 (stereo not given) | 6 | 5
O=C(NCCOc1cccc(C(F)(F)F)c1)c1ccc(Cl)c([N+](=O)[O-])c1 | -3 | -3
CN(Cc1cc(-c2ccncc2)no1)Cc1cc2c(cc1Cl)OCO2 | 2 | 2
Cc1c(C#N)c(N)nc(SCC(=O)c2ccc(Cl)cc2)c1C#N | 5 | 3
CCCC(=O)C1=C(c2ccc(OC)cc2)N(C(=O)CCC)n2c(C)nnc2S1 | 9 | 8
CCCn1nccc1C(=O)N1CCCC(c2n[nH]c(=O)n2CC)C1 (stereo not given) | -9 | -9
O=C(N1CCCN(Cc2cc(=O)c(OCc3ccc(C(F)(F)F)cc3)co2)CC1)C(F)(F)C(F)(F)C(F)(F)F | 28 | 34
O=c1cc(CN2CCN(c3ccc([N+](=O)[O-])cc3)CC2)c2cc3c(cc2o1)CCC3 | 3 | -1
CC(CO)NC(=O)Nc1cc(Br)c(F)cc1Cl (stereo not given) | 1 | 1
O=c1c(-c2ccc(Br)cc2)[n+]([O-])c2ccccc2n1OCc1ccccn1 | 10 | -2
CCOC(=O)c1cn[nH]c1S(=O)(=O)N1CCN(c2ccccc2)CC1 | 1 | -4
